Choline anaer gr: choline-fed anaerobic bacterial growth inhibition. calls only. Gram-negative bacterium anaerobic choline minimal medium, absorbance growth; hits give low values; many inactives read as strong as hits in the columns shown. AID 1963822. 55,000 tested, 0.2% active;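 active means growth z-score on choline under -2 at 7 or 20 h with little or no fall on glycerol, limits in tiers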;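 further: stock transfer was 300 nL into about 50 µL; the organism is E. coli; final concentration not given here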
Choline anaer gr early: recorded beside Choline anaer gr, whose call it bears; z-score; measured here: choline growth z-score, timepoint 1;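 score of optical density at 7 h as mean of two plates; lower means less growth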
* = called active by the depositor; i = inactive; & = joins results of further samples. Some of the compounds tested. The share of hits here may be higher or lower than overall.

compound | Choline anaer gr | Choline anaer gr early
CCn1nccc1C(=O)N1CCCC1c1cc(C)no1 (configuration not stated) | i | 0.92
C=CCN(CC=C)CC(O)Cn1c2c(c3ccccc31)CCN(C)C2=O (configuration not stated) | i | 0.04
Cc1cccc(N(CC(=O)N2CCN(c3ccccc3)CC2)S(=O)(=O)c2ccccc2)c1C | i | -0.2
CCc1nc(CN2C(=O)COc3ccc(S(=O)(=O)N4CCN(CC)CC4)cc32)no1 | i | -1.3
O=S(=O)(c1ccc(Cl)cc1)N1CCC(c2nc(-c3ccncc3)no2)CC1 | i | -0.01
CCCCSc1c(C(C)C)cnc2c1c(=O)n(C)c(=O)n2C | i | -0.08
CCCc1noc(-c2cc(S(=O)(=O)N(C)C)ccc2OC)n1 | i | -2.1
O=C(NCc1ccc2c(c1)OCO2)c1cccn1-c1cccnc1 | i | -0.55
O=S(=O)(NCc1cccs1)c1ccc(-c2ccno2)s1 | i | 0.02
Cc1[nH]c(C)c(S(=O)(=O)N2CCC(C(=O)NCc3ccc4c(c3)OCO4)CC2)c1C(=O)N1CCCCC1 | i | -1.1
Cc1ccc2c(c1)C=C(C(=O)Nc1ccc(N3CCOCC3)cc1)C=CO2 | i | 0.35
CC/C=C/C[C@H](O)/C=C/[C@H]1[C@H](O)CC(=O)[C@@H]1C/C=C\CCCC(=O)O | i | 0.94
Clc1ccc2nnc(Cc3ccccc3)n2n1 | i | -0.2
Cc1noc(C)c1C1CCCN1Cc1ccccc1O (configuration not stated) | i | -2.4
COc1ccc(-c2noc(-c3ccccc3NC(=O)C3CC(=O)N(C4CCCCC4)C3)n2)cc1 (configuration not stated) | i | -0.48
Cc1ccc(NC(=O)c2cn(-c3ccccc3)nc2-c2ccccc2)cc1 | i | 1.3
COc1ccccc1-n1c(=O)c2c3c(sc2n(Cc2ccccc2)c1=O)CN(C(C)=O)CC3 | i | -0.76
COc1cccc(NC(=O)c2ccnc(N3CCC(C(=O)NCCc4ccccc4)CC3)c2)c1 | i | 1.1
COc1cccc2c1C(=O)c1c(O)c3c(c(O)c1C2=O)C[C@@](O)(C(C)=O)CC3O[C@H]1CC(N)C(O)C(C)O1 (some centres not stated) | i | -2.6
CCN(CC)S(=O)(=O)c1ccc(C(=O)N(c2ccc(C)cc2)C2C=CS(=O)(=O)C2)cc1 (configuration not stated) | i | 0.48
COC(=O)c1c(NC(=O)c2ccc(Br)cc2)sc2c1CCN(C(C)C)C2 | i | -3
O=C(NCc1nnc(C(=O)Nc2ccc(F)cc2)s1)Nc1cccc(Br)c1 | i | -0.72
Cc1ccc(-n2ncc3c2NC(=O)CC3c2cc(Br)ccc2F)cc1 (configuration not stated) | i | 2.2
CN1CCN(S(=O)(=O)c2cc(-c3noc(C4CCCC4)n3)cs2)CC1 | i | -0.25
Cn1c(=O)c2nc(S(=O)(=O)CCC(=O)Nc3ccc(Br)cc3)n(C)c2n(C)c1=O | i | 0.95
Cc1ccc(S(=O)(=O)N2C(=O)CCC2C(=O)N(C)C2CCCCC2)cc1C (configuration not stated) | i | -1.3
O=C(C1CCN(c2cncnc2N2CCCCC2)CC1)N1CCOCC1 | i | 0.32
COc1[nH]c2ccc(F)cc2c1C(=O)OCC1CCN(CCNS(C)(=O)=O)CC1 | i | -1.2
O=C(Nc1cccc(Cl)c1)N1CCc2nc(N3CCCCC3)ncc2C1 | i | -1.6
O=C(Cc1ccc(Cl)cc1)Nc1ccc(SCc2nnc(-c3ccccc3)o2)cc1 | i | 0.68

One compound at a time, as listed above. Order of screens: Choline anaer gr	Choline anaer gr early
COc1[nH]c2ccc(F)cc2c1C(=O)OCC1CCN(CCNS(C)(=O)=O)CC1 reads i	-1.2
COc1cccc(NC(=O)c2ccnc(N3CCC(C(=O)NCCc4ccccc4)CC3)c2)c1 reads i	1.1
O=C(C1CCN(c2cncnc2N2CCCCC2)CC1)N1CCOCC1 reads i	0.32
CN1CCN(S(=O)(=O)c2cc(-c3noc(C4CCCC4)n3)cs2)CC1 reads i	-0.25
Cc1ccc(-n2ncc3c2NC(=O)CC3c2cc(Br)ccc2F)cc1 (configuration not stated) reads i	2.2

Remaining list, next part:
compound | Choline anaer gr | Choline anaer gr early
CCc1ccc(NC(=O)Cc2csc(-n3nc(C)cc3C)n2)cc1 | i | 1.2
CCOC(=O)COc1cc(C)c(Cl)cc1C(=O)c1ccn2nc(-c3ccc(OC)cc3)cc2n1 | i | -0.99
COc1ccccc1N1CC(c2nc3ccccc3n2CC(O)COc2ccccc2)CC1=O (configuration not stated) | i | 0.74
CC1(C)S[C@@H]2[C@H](NC(=O)[C@H](N)c3ccc(O)cc3)C(=O)N2[C@H]1C(=O)O | i | 0.49
COc1ccc(-c2nc3n(c2C(=O)N2CCOCC2)CCS3(=O)=O)cc1 | i | -0.99
C=C[C@@]1(C)CC(=O)[C@]2(O)[C@@]3(C)[C@@H](O)CCC(C)(C)[C@@H]3[C@H](O)[C@H](OC(C)=O)[C@@]2(C)O1 | i | 1.3
CCOC(=O)c1[nH]c(C)c(CCC(=O)N2CCCC(C(=O)N3CCC(C)CC3)C2)c1C (configuration not stated) | i | -0.37
CC1(C)C(=O)N(CC(=O)N2CCN(c3ccc(Cl)cc3)CC2)c2ccccc21 | i | -0.97
CC(=O)NC(C)c1nc(-c2ccc(C(C)(C)C)cc2)no1 (configuration not stated) | i | 0.05
O=C(NCc1cc(=O)n2nc(-c3ccccc3)sc2n1)Nc1cccc(F)c1 | i | 0.05
O=c1nc(SCc2ccc(F)cc2)c2c(n1CCc1ccccc1)CCC2 | i | 2.2
O=C(c1cnc2ccc(Cl)cc2c1S(=O)(=O)c1ccc(F)c(Cl)c1)N1CCSCC1 | i | -1.2
CN(CCc1noc(C(=O)NCc2ccccc2)n1)C(=O)COc1ccc(Cl)cc1 | i | -0.68
CC(C)(C)c1cc(O)c(C(C)(C)C)cc1O | i | -0.83&0.39
CCOc1ccc(Br)cc1S(=O)(=O)N1CCN(c2nc(C)cc(N(C)C)n2)CC1 | i | -0.89
CCNc1cc(C)nc(N2CCN(S(=O)(=O)CC)CC2)n1 | i | -0.73
CCc1ccccc1NC(=O)Nc1cc(C)c2nc(NC(C)=O)sc2c1 | i | -0.3
COc1ccc(C2CC(=O)N(c3ccc(C)c(F)c3)C(=O)C2)cc1OC | i | 1.4
O=C(CN1C(=O)COc2ccc(C(=O)N3CCCC3)cc21)Nc1ccccc1Cl | i | -0.39
CC1CCCCC12NCCN=C2NCc1ccc(F)cc1 (configuration not stated) | i | -1.2
CCC(=O)N1CCCc2cc(S(=O)(=O)N3CCC(C)CC3)ccc21 | i | -0.58
Cc1cc(C(=O)N2CCOCC2)no1 | i | -1.4
CCOC(=O)c1c(C)[nH]c(NC(=O)Nc2nnc(CC)s2)c1C | i | -0.26
Cc1nc(-c2cccc(-c3noc(C4CCCC4)n3)c2)cs1 | i | -0.99
COc1cccc(S(=O)(=O)N2CCN(Cc3nc4cccnc4n3-c3ccc(C)cc3)CC2)c1 | i | 1.1
Cc1cc(N2CCCC2)nc(Nc2ccc(NC(=O)Nc3ccc(Cl)cc3)cc2)n1 | i | 0.42
Cn1c(C(=O)O)c(CC(=O)O)c2ccccc21 | i | 0.08
Cc1cc(CNS(=O)(=O)c2cccc(Cl)c2)c(C)n1-c1ccc(F)cc1 | i | 0.02
Cc1ccc2c(c1)N(CC(=O)NCc1ccccc1)C(=O)CO2 | i | 0.96
COc1ccc(NS(=O)(=O)c2cc(-c3nc(C)c(C(=O)N4CCCC4)s3)cs2)cc1OC | i | -0.66
CSc1nc(N)c2ncn([C@@H]3O[C@H](COP(=O)(O)OP(=O)(O)OP(=O)(O)O)[C@H](O)C3O)c2n1 (some centres not stated) | i | -0.59
O=C(NC1CCCCC1)C1CCCN(C(=O)c2cc(-c3cccnc3)n[nH]2)C1 (configuration not stated) | i | 1.1
CC(C)c1csc(-c2csc(S(=O)(=O)N3CCN(c4ccccc4F)CC3)c2)n1 | i | 0.18
O=C(C1CCCC1)N1CCCN(Cc2noc(-c3ccccc3)n2)CC1 | i | -0.88
O=C(Nc1cccc(Cl)c1)c1ccc(-n2nc(N3CCCC3)ccc2=O)cc1 | i | -0.25
O=C(c1cc(S(=O)(=O)N2CCCC(C(=O)N3CCN(c4ccccc4)CC3)C2)c[nH]1)N1CCCC1 (configuration not stated) | i | 0.31
Cc1cc(C)cc(-n2c(CN3CCN(C(=O)NC(C)(C)C)CC3)nc3cccnc32)c1 | i | 0.19
O=S(=O)(c1ccc(-n2cnnn2)cc1)N1CCN(c2ccccn2)CC1 | i | -0.88
Cc1ccc(-c2ccc(-n3nc(C)c(S(=O)(=O)NCc4ccc5c(c4)OCO5)c3C)nn2)cc1 | i | -0.84
CC(=O)N1CC(C)(C)c2cc(S(=O)(=O)N3CCN(c4ccc(Cl)cc4)CC3)ccc21 | i | 0.94
CCCCN(C)C(=O)c1cc(NS(=O)(=O)c2cc(C)c(C)cc2C)cnc1N1CCNCC1 | i | 0.7
O=C(c1ccoc1)N1CCCn2nc(-c3cccs3)cc2C1 | i | 0.89
Cc1nn(-c2ccc3nncn3n2)c(C)c1CCC(=O)NCCc1c[nH]c2ccccc12 | i | -1.5
O=C(COc1ccccc1Cl)Nc1cccc(OCc2cc(=O)n3ccccc3n2)c1 | i | 0.08
CO[C@H]1O[C@@H]2O[C@]3(C)CC[C@@H]4[C@@H](C)CC[C@H]([C@H]1C)[C@]24OO3 | i | -2.3

As entered above:
O=S(=O)(c1ccc(-n2cnnn2)cc1)N1CCN(c2ccccn2)CC1 – Choline anaer gr early: -0.88
Cc1cc(C)cc(-n2c(CN3CCN(C(=O)NC(C)(C)C)CC3)nc3cccnc32)c1 – Choline anaer gr early: 0.19

Remaining list, next part
compound | Choline anaer gr | Choline anaer gr early
Clc1nnc(N2CCOCC2)c2ccccc12 | i | -0.25
Cc1ccc(CSc2nc3c(-c4ccccc4)c[nH]c3c(=O)[nH]2)cc1 | i | 1
COCc1nnc(C(=O)Nc2cccc(C(=O)NCCc3c[nH]c4ccc(C)cc34)c2)s1 | i | 0.84
CCOc1ccc(NC(=O)N2CCN(C(=O)Cc3csc4ccccc34)CC2)cc1 | i | 0.31
Cc1ccc(-c2nc(C)cc(OCC(=O)Nc3ccccc3)n2)cc1 | i | 1.4
CCOC(=O)C1CCN(S(=O)(=O)c2cc3c(=O)[nH]nc(C)n3c2)CC1 | i | 0.22
COc1ccc(C(=O)NCCc2csc(-c3ccccc3)n2)cc1Cl | i | 0.06
Nc1nonc1C(=O)N1CCCN(C(=O)Nc2ccc(Cl)cc2)CC1 | i | -0.17
Cc1nc(-c2ccc(Cl)c(S(=O)(=O)N3CCCC(C(=O)N4CCOCC4)C3)c2)no1 (configuration not stated) | i | -0.4
COc1cccc(CN(c2nc3nc(C)c(Cl)c(C)n3n2)S(=O)(=O)c2ccccc2)c1 | i | 0.23
c1ccc2c(c1)CCN(c1nn3nnnc3c3ccccc13)C2 | i | 0.98
O=C(COc1ccc(NC2=NS(=O)(=O)c3ccccc32)cc1)N1CCOCC1 | i | 0.24
CCOC(=O)c1oc2cccc(OC(C)=O)c2c1C | i | -0.59
Cc1cccc2c1-c1sc(C(=O)NCCCN3CCC(C)CC3)cc1CO2 | i | 0.79
CCSc1nn(CC(=O)Nc2ccccc2)c(N)c1S(=O)(=O)c1ccc(Cl)cc1 | i | -0.1
CCOc1ccc(C2Nc3ccc(C)cc3[C@H]3OCCC[C@@H]23)cc1OCC (some centres not stated) | i | 0.3
CN(C)S(=O)(=O)N1CCC(Oc2cc(N3CCOCC3)ncn2)C1 (configuration not stated) | i | 0.73
CCc1ccc(OC(C)C(=O)NCc2csc(-c3ccc(OC)cc3)n2)cc1 (configuration not stated) | i | 0.3
Cc1c(CN2CCSCC2)nnn1-c1ccccc1 | i | -0.48
O=C(c1nc(-c2ccccc2)n(-c2ccccc2)n1)N1CCN(c2ccccc2)CC1 | i | -0.46
CCCN(C)S(=O)(=O)c1cc(-c2nc(C(C)(C)C)cs2)cs1 | i | 1.2
Cc1ccc2c(c1)OC=CC(C(=O)Nc1ccc(C(C)C)cc1)=C2 | i | 3.3
Cc1ccccc1NC(=O)COc1cccc2c(=O)n(C)ccc12 | i | 0.17
CCc1c(C)nc2ncnn2c1Nc1ccccc1OC | i | 0.4
C=C1c2c(Cl)ccc(O)c2C(O)=C2C(=O)[C@]3(O)C(O)=C(C(N)=O)C(=O)[C@@H](N(C)C)[C@@H]3[C@@H](O)C12 (some centres not stated) | i | -1.6
CCc1ccc(NC(=O)Nc2ccc3c(c2)N(C(=O)c2ccc(C)cc2)CC3)cc1 | i | 0.14
CCOc1ccccc1NC(=O)c1c(O)c2ccccc2n(CC)c1=O | i | 0.69
COC(=O)c1cc(Nc2ncnc3c2nc2n3CCCCC2)cc(C(=O)OC)c1 | i | 0.36
Cc1c(CN2CCCC(c3nncn3C(C)C)C2)cnn1C (configuration not stated) | i | 0.31
CC(C)(C)S(=O)(=O)c1ccc(NCCc2ccc(S(N)(=O)=O)cc2)nn1 | i | -1.3
COCCCNC(=O)CSc1nnc(-c2cc3ccccc3n2-c2ccccc2)o1 | i | -0.06
O=C(CCCn1c(=O)c2cccn2c2ccc(Br)cc21)NC1CC1 | i | 0.02
O=C(c1csc(S(=O)(=O)N2CCC(C(=O)N3CCOCC3)CC2)c1)N1CCOCC1 | i | -1.2
O=C1CC(c2ccc(Cl)cc2)Cc2nc(NCC3CCCO3)ncc21 (configuration not stated) | i | -0.01
CCS(=O)(=O)c1nc2ccc(NS(=O)(=O)c3cc(OC)ccc3OC)cc2s1 | i | 0.46
CCCc1cc(NCC(C)C)n2nc(-c3cccnc3)nc2n1 | i | 0.47
COc1ccc(NC(=O)Cn2c3ccccc3n3c(=O)cc(-c4ccccc4)nc23)c(OC)c1 | i | 0.53
O=C(NC1CCCCC1)c1ccc(CN2C(=O)CSc3ncccc32)cc1 | i | 0.55
